# HPGD inh = qHTS Assay for Inhibitors of HPGD (15-Hydroxyprostaglandin Dehydrogenase); 15-hydroxyprostaglandin dehydrogenase [NAD(+)] (Homo sapiens), P15428; purified HPGD, NADH fluorescence kinetic, PGE2 substrate; Potency, µM, without a hit: top-dose activity change, negative = inhibition, usual class: inhibitors; hit rate 4.3% among 150,000; active = well fitted inhibition curve with a large enough effect (not every such curve was filed as active); inconclusive = small, poorly fitted or top-dose-only effect, or another doubt; inactive = no such curve, though single readings can be large or run the other way;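 note: top concentration of the series not given in the record; plate controls included wells without enzyme; inactives centre near -10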
# Target sequence (P15428 whole entry, looked up): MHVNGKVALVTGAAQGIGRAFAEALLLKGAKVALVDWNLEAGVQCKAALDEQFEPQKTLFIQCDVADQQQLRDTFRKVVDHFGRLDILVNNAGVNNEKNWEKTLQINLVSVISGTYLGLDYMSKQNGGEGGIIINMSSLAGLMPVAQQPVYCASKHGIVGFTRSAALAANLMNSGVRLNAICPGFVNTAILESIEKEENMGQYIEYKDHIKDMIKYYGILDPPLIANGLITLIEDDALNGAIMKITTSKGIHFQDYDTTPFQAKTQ
#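 NADH formation kinetics: reaction with 30 uM PGE2 and 1 mM NAD+ (final), 20 nM enzyme, Tris-HCl pH 8 with Tween 20, after 15 min compound preincubation at room temperature. Fluorescence change, last versus first of five reads.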
# * marks the source's active call; other numbers are inactive results; ? = inconclusive. % is set by controls: 0 for no effect and ±100 for the full control effect; potency is the fitted concentration of half-maximal effect. An excerpt. The share of hits here may be higher or lower than overall.
SMILES,HPGD inh
CCOCCCNc1nc2c(c(=O)[nH]c(=O)n2C)n1CCCc1ccccc1,-12%
CC1=C(C(=O)OCc2ccccc2)C(/C=C/c2ccccc2)N2C(=O)CCSC2=N1 (configuration not stated),-10%
O=C1C(=O)N(Cc2cccnc2)C(c2ccccn2)/C1=C(/O)c1ccc(Br)cc1 (configuration not stated),-5%
CCOC(=O)C1Oc2ccccc2C(c2ccccc2)=C1C(C)=O (configuration not stated),-15%
Cc1ccc2oc(=O)c(/C=C(\O)c3sc(C)nc3C)nc2c1,-1%
O=C(O)c1ccccc1SCC(=O)N1c2ccccc2Sc2ccccc21,-21%
CC(=O)Nc1ccc(C)cc1NC(C)=O,-2%
O=C(Nc1ccc(F)cc1)c1ccccc1F,-16%
COC(=O)CC(NC(=O)c1ccco1)c1cccc2ccccc12 (configuration not stated),-11%
O=C(Nc1ccon1)c1ccc2c(c1)OCO2,18µM*
COC(=O)c1ccccc1NC(=O)c1ccco1,-7%
COC(=O)c1cccc(C23CC4(C2)[C@H](CN(CC2CCCCC2)[C@@H]4c2ccccc2)C3c2ccc(C(F)(F)F)cc2)c1 (some centres not stated),-9%
C=CCn1c(Cc2cccs2)nnc1SCC(=O)Nc1cccc(OC)c1,-4%
CC1CCN(CCCCOc2ccccc2-c2ccccc2)CC1,-1%
CN(C)c1ccc(/C=N/c2cc(-c3ccccc3)nn2-c2ccccc2)cc1,-20%
COc1cccc(CNc2nc3nc(C)cc(C)n3n2)c1,?
O=C(CCC1CC(=O)Nc2ccccc21)NCc1ccccc1 (configuration not stated),-23%
Cc1ccc(Cl)c(OC(=O)c2ccc(N3CCOCC3)c([N+](=O)[O-])c2)c1,-15%
Cc1nc2c(C(=O)NCc3ccc4c(c3)OCO4)c[nH]n2c(=O)c1Cl,?
CC1CCN(C(=O)CCCNC(=O)Cn2cnc3sc4c(c3c2=O)CCCC4)CC1,-10%
O=C(COc1ccccc1)NCC(=O)Nc1ccc(S(=O)(=O)NCc2ccco2)cc1,-13%
CCn1c(=NC(=O)CN2C(=O)CCC2=O)sc2c(C)cc(C)cc21,14µM*
CCc1ccc(Nc2nnc(SC3CCOC3=O)s2)cc1 (configuration not stated),-9%
COc1ccc(Cl)cc1NC(=O)CCn1cnc2ccccc2c1=O,-9%
O=C(Nc1ccccc1)c1nnsc1S(=O)(=O)c1ccc(Cl)cc1,11µM*
SMILES,HPGD inh
Cc1ccccc1OCC(=O)Nc1cccc(NC(=O)c2ccco2)c1,-10%
COC(=O)CCCC1=CC2=CC(=O)C(C)(OC(=O)c3cccs3)C(=O)C2=CN1CCCOC(C)C (configuration not stated),-7%
COc1ccc2cc(C(=O)NC3CCCCC3)c(=O)oc2c1,?
CCCc1[nH]n(-c2nc3ccccc3s2)c(=O)c1C=NCCN1CCOCC1,-7%
Cc1nn(-c2ccccc2)c2[nH]c(=O)c(CNCc3ccc4c(c3)OCO4)cc12,?
NNC(=O)c1nnn(-c2nonc2N)c1-c1cccs1,-6%
CCc1nc(N)c(C#N)c(-c2ccncc2)c1C,-27%
Cc1cccc(NC(=O)CSc2nnc(C)c(=O)n2N)c1C,-9%
Cc1ccc(OCC(=O)N/N=C2\CCOc3c(C)cccc32)cc1,-11%
Cn1c(=O)c2[nH]c(-c3cccnc3)nc2n(C)c1=O,-27%
Cc1cc(C)c(C#N)c(N2CCN(Cc3ccc4c(c3)OCO4)CC2)n1,?
COCC(=O)N1CCN(c2ccc([N+](=O)[O-])cc2)CC1,-12%
CCSc1nc(N2CCOCC2)c2c(c1C#N)CC(C)(C)N(C)C2,-4%
CCCC(=O)NCCc1cc2cc(C)c(C)cc2[nH]c1=O,-21%
O=c1c2ccccc2nnn1CSc1ccc2ccccc2n1,-23%
COc1ccc2nc(SCC(=O)N(C)C3CCCCC3)c(C#N)cc2c1,?
Cc1cc(C(F)F)nn1CC(=O)NCc1ccco1,?
CCCC(=O)Nc1cc(OCC)c(NC(=O)NC2CCCCC2)cc1OCC,-9%
COc1cc(-c2nc3ccccc3s2)ccc1O,?
O=C1OC2(c3ccccc3)C3CCCC2C13,-1%
Cn1c(C(C)(O)C(O)c2ccccc2)nc2ccccc21 (configuration not stated),-19%
CCOC(=O)N1CCN(C(=O)c2ccc(CN(c3ccccc3)S(C)(=O)=O)cc2)CC1,-5%
C[C@@H](C(=O)O)c1ccc(C(=O)c2ccccc2)s1,14µM*
CCCC(=O)NC(=S)Nc1cccc(C(C)=O)c1,16µM*
Cc1cc(C(=O)CSc2nnnn2C)c(C)n1-c1ccc2c(c1)OCCO2,25µM*
SMILES,HPGD inh
CCOC(=O)C(C#N)C(c1cccnc1)c1c(C)[nH][nH]c1=O (configuration not stated),0%
CCOC(=O)N1CCN(c2c(-c3ccc(C)c(C)c3)c(=O)c2=O)CC1,-15%
COc1nn(-c2nc(-c3ccccc3)cc(C(F)(F)F)n2)cc1[N+](=O)[O-],-4%
O=C(NCCN=C1NS(=O)(=O)c2ccccc21)c1ccc2nccnc2c1,-21%
Cn1c(NC(=O)/C=C/c2ccc(Cl)c(Cl)c2)cc(=O)n(C)c1=O,-14%
O=C(CN1CCN(c2ccc(O)cc2)CC1)Nc1ccc(SC(F)F)cc1,-7%
CSc1nc2cc(S(=O)(=O)N3CCCCC3)ccc2s1,-4%
CC1(C)CC(=O)C(CC2=C(O)CC(C)(C)CC2=O)=C(O)C1,-12%
Cc1cc(OCC(=O)Nc2ccc(S(=O)(=O)NC3=NCCCCC3)cc2)c(C(C)C)cc1Cl,-30%
O=C(CSc1nccc(=O)[nH]1)N1CCc2ccccc2C1,-28%
CCOC(=O)C(C)Oc1nc(Oc2ccccc2)nc(N(C)C)n1 (configuration not stated),-8%
Cc1csc(B(O)O)c1,-13%
Cc1ccc(C2Oc3ccccc3C3=C2C(c2cccs2)n2ncnc2N3)cc1 (configuration not stated),-14%
O=C(NCc1ccccn1)c1ccc([N+](=O)[O-])cc1,-12%
CCCCCCC1CC(CCc2nc(=S)[nH][nH]2)C(=O)O1 (configuration not stated),16µM*
COC(=O)c1ccccc1S(=O)(=O)NC(=O)c1ccccc1,-7%
COc1cccc(-c2cc(NCc3cccs3)ncn2)c1,?
COc1ccc(N2C(=O)CC(N3CCC(c4nc5ccccc5[nH]4)CC3)C2=O)cc1 (configuration not stated),2%
Cc1ccc(NC(=O)c2cccc(OCc3c(C)noc3C)c2)cc1S(=O)(=O)Nc1ccccc1Cl,?
Cc1nc2nc[nH]n2c(=O)c1CC(=O)O,-7%
CC(=O)c1c(C)[nH]c(C(=O)Nc2cccc(S(=O)(=O)N3CCOCC3)c2)c1C,-5%
Cc1noc(NS(=O)(=O)c2ccc(NC(=O)COc3ccc(Cl)cc3Cl)cc2)c1C,16µM*
CCn1c(COc2ccccc2)nnc1SCC(=O)c1cccc([N+](=O)[O-])c1,-14%
CCOC(=O)c1csc(NC(=O)c2ccccc2)n1,2%
O=C1/C(=C/c2ccc(F)cc2)SC(=S)N1Nc1ncc(C(F)(F)F)cc1Cl,-25%
SMILES,HPGD inh
CCSc1ccccc1C(=O)Nc1cccnc1,-13%
CCCCn1c(=O)n(C)c(=O)c2c3c(sc21)COC(C)(C)C3,-21%
Cc1ccc(NC2=C(Cl)C(=O)OC2OC(=O)c2ccco2)cc1C (configuration not stated),-17%
c1ccc(C(c2nnnn2Cc2ccco2)N2CCN(C3CCCC3)CC2)cc1 (configuration not stated),-7%
O=C1c2ccccc2C(=O)N1CCc1csc(-c2ccc(F)cc2)n1,?
Cn1nccc1C(=O)Nc1ccn(C23CC4CC(CC(C4)C2)C3)n1,-9%
O=C(NCC(F)(F)F)Nc1cccnc1,-19%
COc1ccc(N(CC(=O)NCc2ccco2)S(C)(=O)=O)cc1OC,1%
CCOc1ccc(N(CC(=O)N2CCc3ccccc32)S(=O)(=O)c2c(C)noc2C)cc1,-7%
Cc1csc(C(=O)O)c1-n1cccc1,-5%
COc1ccc(-c2cc(C(=O)Nc3c(C)nn(Cc4ccccc4Cl)c3C)no2)cc1OC,-7%
CCOC(=O)C1=C(O)C(=O)NC(c2ccccc2)=C(OC2CCCCC2)C1,-13%
NC(=O)C1CCCN(C(=S)Nc2cccc3ccccc23)C1 (configuration not stated),-9%
Cc1onc(-c2ccccc2Cl)c1C(=O)Nc1ccccc1C(N)=O,-6%
O=C(c1ccc(Cl)cc1)N1CCN(C(=O)c2ccco2)CC1,-5%
CCOC(=O)N/N=C/c1ccc(N(CC)CC)cc1O,-14%
COc1ccc2cc(CN(CC3CCCO3)S(=O)(=O)c3ccccc3Cl)c(=O)[nH]c2c1 (configuration not stated),-10%
Cc1cccc(Cn2c(SCCO)nc3c2c(=O)n(C)c(=O)n3C)c1,-8%
CCCCN(C)Cc1c(C)[nH]c2ccc(Cl)cc2c1=O,-18%
Cn1c(Cn2c(=O)sc3ccccc32)nnc1SCC(=O)NCCc1ccccc1,-4%
Cc1cc(NC(=O)CSc2nc3ccccc3c(=O)n2C2CCCC2)no1,-1%
Cc1cc(NC(=O)c2cc(-c3cccs3)on2)nn1Cc1ccc(Cl)cc1,?
COc1ccc(-c2cc(=O)oc3c(C)c(OC(=O)c4cccs4)ccc23)cc1,-12%
CNC(=S)N1CCN(c2cccc(OC)c2)CC1,-18%
CCc1nnc(NS(=O)(=O)c2ccc(N=Cc3c(C)[nH]n(-c4ccc(C)c(C)c4)c3=O)cc2)s1,16µM*
SMILES,HPGD inh
Cc1ccc(/C=C/C(=O)O)cc1S(=O)(=O)N(C)CCO,-1%
COc1ccc(Cc2nc3c4c(ncn3n2)Oc2c(ccc3ccccc23)C4c2ccc(OC)c(OC)c2)cc1 (configuration not stated),?
C(#Cc1ccccc1)Cn1nnc2ccccc21,?
C/C(=N/NC(=O)c1ccc(Br)o1)c1ccncc1,-17%
CC1=CCC(COC(=O)Nc2ccccc2)CC1 (configuration not stated),-26%
CC(NC(=O)Cc1ccccc1[N+](=O)[O-])c1ccccc1 (configuration not stated),-12%
CN1/C(=C\C(=O)c2cccnc2)C(C)(C)c2ccccc21,-2%
O=C1CCCN1c1ccc(S(=O)(=O)Oc2ccc(Cl)cc2)cc1[N+](=O)[O-],7.9µM*
CC(C)OCCCN1CN(S(=O)(=O)c2ccccc2)c2nc3ccccc3nc21,-13%
Cc1cc(C)c(NC(=O)CSc2nnc(-c3ccncc3)n2Cc2ccco2)c(C)c1,-9%
O=C(O)C1C2CCC(O2)C1C(=O)Nc1ccc(O)cc1 (configuration not stated),-15%
CC(C)OC(=O)/C(C#N)=C/c1c[nH]c2ccccc12,-14%
CCOc1ccc(N2C(=O)C3CCCN3C2=O)cc1 (configuration not stated),-3%
CCC(C)NC(=O)C1CCCN(S(=O)(=O)c2ccc(-n3cnnn3)cc2)C1 (configuration not stated),1%
CCOc1ccc(C(=O)Nc2cccc([N+](=O)[O-])c2)cc1Br,-11%
CCOc1ccc(CNn2nnnc2N)cc1,-2%
Cc1ccc2c(c1)cc(CN(Cc1cccs1)C(=O)c1ccco1)c1nnnn12,-22%
CCn1c(Cn2nnc(-c3ccccc3)n2)nnc1SCC(=O)Nc1ccc(C(C)=O)cc1,-23%
CCOC(=O)Cc1c(C)nc2c(-c3cccc(Br)c3)c[nH]n2c1=O,?
C=CCNC(=O)CN(c1ccc(F)cc1)S(=O)(=O)c1ccc(OC)cc1,-6%
COC(=O)c1ccc(C(NC(=O)OCc2ccccc2)/C(=C/[C@@H](C)C(=O)NCc2cc(F)cc(F)c2)c2cccnc2)cc1 (some centres not stated),-7%
CCOc1ccc2nc(C(C)O)[nH]c2c1 (configuration not stated),-1%
Cc1ccc(C2C(C(=O)c3sc(C)nc3C)=C(O)C(=O)N2CCCN(C)C)o1 (configuration not stated),-5%
CCC(=O)N1CCN(c2ccc(NC(=O)c3ccc(Br)o3)cc2)CC1,-5%
Nc1ccccc1Oc1ncc(C(F)(F)F)cc1Cl,-4%
O=C(O)CCc1ccc(-c2cccs2)n1CCC(=O)O,?
O=C(CCCC(=O)OCC(Cl)=C(Cl)Cl)Nc1ccccc1,25µM*

# Grouped by structure, the compounds so far with a Cl atom.
SMILES,HPGD inh
Cc1ccc(Cl)c(OC(=O)c2ccc(N3CCOCC3)c([N+](=O)[O-])c2)c1,-15%
Cc1nc2c(C(=O)NCc3ccc4c(c3)OCO4)c[nH]n2c(=O)c1Cl,?
COc1ccc(Cl)cc1NC(=O)CCn1cnc2ccccc2c1=O,-9%
O=C(Nc1ccccc1)c1nnsc1S(=O)(=O)c1ccc(Cl)cc1,11µM*
Cn1c(NC(=O)/C=C/c2ccc(Cl)c(Cl)c2)cc(=O)n(C)c1=O,-14%
Cc1cc(OCC(=O)Nc2ccc(S(=O)(=O)NC3=NCCCCC3)cc2)c(C(C)C)cc1Cl,-30%
Cc1ccc(NC(=O)c2cccc(OCc3c(C)noc3C)c2)cc1S(=O)(=O)Nc1ccccc1Cl,?
Cc1noc(NS(=O)(=O)c2ccc(NC(=O)COc3ccc(Cl)cc3Cl)cc2)c1C,16µM*
O=C1/C(=C/c2ccc(F)cc2)SC(=S)N1Nc1ncc(C(F)(F)F)cc1Cl,-25%
Cc1ccc(NC2=C(Cl)C(=O)OC2OC(=O)c2ccco2)cc1C (configuration not stated),-17%
COc1ccc(-c2cc(C(=O)Nc3c(C)nn(Cc4ccccc4Cl)c3C)no2)cc1OC,-7%
Cc1onc(-c2ccccc2Cl)c1C(=O)Nc1ccccc1C(N)=O,-6%
O=C(c1ccc(Cl)cc1)N1CCN(C(=O)c2ccco2)CC1,-5%
COc1ccc2cc(CN(CC3CCCO3)S(=O)(=O)c3ccccc3Cl)c(=O)[nH]c2c1 (configuration not stated),-10%
CCCCN(C)Cc1c(C)[nH]c2ccc(Cl)cc2c1=O,-18%
Cc1cc(NC(=O)c2cc(-c3cccs3)on2)nn1Cc1ccc(Cl)cc1,?
O=C1CCCN1c1ccc(S(=O)(=O)Oc2ccc(Cl)cc2)cc1[N+](=O)[O-],7.9µM*
Nc1ccccc1Oc1ncc(C(F)(F)F)cc1Cl,-4%
O=C(CCCC(=O)OCC(Cl)=C(Cl)Cl)Nc1ccccc1,25µM*
